H5N1 CPE = MDCK cell protection from H5N1 avian flu | cytopathic effect, luminescence, 72 h; stronger effect = higher value; no value below 0 was filed and about half of the inactive calls have no number; reference of the scale not given here | 96,000 tested, 0.07% active | AID 740, 2007 | inhibition, % at 50 µM; in the data active means inhibition above about 25%
Active calls of the source: *; i = inactive. A portion of the library (hit frequency here may not be typical).

SMILES	H5N1 CPE
O=C(COc1cccc2ccccc12)NNC(=O)C1CCCO1 (configuration not stated)	0.7
CCC(CC)c1nnc(NC(=O)COc2ccc3c(C)cc(=O)oc3c2)s1	i
C=COCCNC(=O)C1CC(=O)N(c2ccc(C)cc2)C1 (configuration not stated)	1.6
C=CCN1C(=O)C2(NNc3ccccc3O2)c2ccccc21 (configuration not stated)	i
COc1ccc(C(=O)n2nc(-c3ccc(C)cc3)nc2N)cc1OC	1.1
O=C(CN1CCOCC1)Nc1ncc(Br)cc1Br	0.5
O=C(c1ccccc1F)c1cn(CC(=O)N2CCCC2)c2ccccc12	0.1
COc1ccc(CNC(=O)c2cc(-c3ccco3)on2)cc1	i
COc1ccc(OCC(=O)OCC(=O)NCc2ccco2)cc1	0.2
Fc1ccc(Cn2c(SCc3ccc(F)c(C(F)(F)F)c3)nnc2C(F)(F)F)cc1	2.3
O=C(NCCN1CCN(c2ccccc2F)CC1)c1cccn2c(=O)c3ccccc3nc12	1.6
COC(=O)Cc1c(C)c2ccc(OCC(=O)N3CCOCC3)cc2oc1=O	0.1
COc1ccc(OC)c(S(=O)(=O)Nc2ccc(C(C)=O)cc2)c1	0.5
Cc1cc(C)c2c(c1)-c1c(ssc1=S)C(C)(C)N2C(=O)CSc1nncn1C	2.8
O=C(CCNC(=O)Cn1ccc2ccccc2c1=O)NCCCN1CCN(c2ccccc2F)CC1	0.3
CC(=O)Nc1cc(-c2nn(CC(=O)N3CCCCC3)c(=O)c3ccccc23)ccc1N1CCOCC1	0.9
COc1cccc(C(=O)CN(C(=O)c2ccc(Cl)c(Cl)c2)N2C(=O)c3ccccc3C2=O)c1	i
CC(C)C(c1nnnn1Cc1ccccc1)N1CCc2ccccc2C1 (configuration not stated)	0.1
Cc1ccnc2nc(C(=O)N3CCN(S(=O)(=O)c4ccccc4)CC3)nn12	0.4
C=CCNC(=O)c1ccccc1NC(=O)c1ccc(Cl)c(S(=O)(=O)Nc2ccccc2)c1	14
O=C(CCCC(=O)OCC1CCCO1)OCC1CCCO1 (configuration not stated)	i
COc1ccc(Nc2cc(C)nc3nc(C)nn23)cc1Cl	i
c1ccc(SCc2nc(-c3cccnc3)no2)cc1	0.8
CCOC(=O)C1=NN(c2ccccc2)C(=O)/C1=C\c1ccc(N(C)C)cc1	1.4
c1ccc(Cn2nnnc2CN2CCN(Cc3ccc4c(c3)OCO4)CC2)cc1	0.8

Fetched one by one from the entries so far, 2 records:
SMILES	H5N1 CPE
COc1ccc(C(=O)n2nc(-c3ccc(C)cc3)nc2N)cc1OC	1.1
c1ccc(SCc2nc(-c3cccnc3)no2)cc1	0.8

Other compounds follow:
SMILES	H5N1 CPE
C=CCn1c(Cc2ccc(OC)cc2)nnc1SCC(=O)c1cccc([N+](=O)[O-])c1	1.3
O=C(O)C1CC=CCC1C(=O)Nc1cccc(Cl)c1Cl (configuration not stated)	i
Nn1c(COc2ccccc2)nnc1SCC(=O)O	i
CSc1ccc(-c2nnn(Cc3ccccn3)n2)cc1	0.4
CCn1c(-c2ccccc2)c(C(=O)O)c2ccccc21	2.5
CCCn1c2ccccc2c2nnc(SCC(=O)OCC)nc21	0.6
COC(=O)c1ccc(N2CCN(c3ccccc3)CC2)c(NC(=O)C2CC2)c1	1.4
CCOC(=O)CCCc1c[nH]c2ccccc12	0.9
Cc1ccccc1-n1c(SCC(=O)N2CCN(c3ccccc3)CC2)nnc1-c1ccncc1	2.1
O=C(Cn1nc(Cc2cccnc2)c2ccccc2c1=O)N1CCN(C(=O)c2ccco2)CC1	1.8
O=C(CSCC(=O)N1CCOCC1)Nc1nc(-c2ccc3c(c2)OCO3)cs1	i
Cn1cccc1CC(=O)N/N=C/c1cccc2ccccc12	2.1
O=C(c1ccccc1-c1ccccc1)N1CCCC1	0.8
CCOC(=O)c1ccc(NC(=O)NCc2ccncc2)cc1	0.6
Cn1c(N2CCC(C(N)=O)CC2)nc2c1c(=O)n(Cc1cccc(Br)c1)c(=O)n2C	1.4
CC1CCN(S(=O)(=O)c2csc(C(=O)Nc3ccccc3)c2)CC1	0.1
Cc1ccc2c(c1)cc(CN(Cc1ccc3c(c1)OCO3)C(=O)c1ccccc1)c1nnnn12	3.1
CCn1ncc(Cl)c1C(=O)Nc1cc(Cl)ccc1Cl	i
CCCCn1nnc(NC(=O)c2sc3cc(Cl)ccc3c2Cl)n1	0.3
Cc1cc(N2CCN(C)CC2)n2cc(-c3ccc(F)cc3)nc2n1	2.2
O=C(Nc1cccc([N+](=O)[O-])c1)c1ccc(CSc2ccccc2)cc1	i
Cc1cccc(NC(=O)Cn2cc(C(=O)c3ccco3)c3ccccc32)c1	i
O=C1OCC(CO)(CO)N=C1NNc1ccc(Cl)c(Cl)c1	i
O=C(NCCC1=CCCCC1)C1CCCN(S(=O)(=O)c2cccc3cccnc23)C1 (configuration not stated)	i
CCOC(=O)C(Cc1ccccc1)NC(=O)Cn1nnc(-c2ccccc2)n1 (configuration not stated)	1.2

Part of the list above, set out differently.
CCOC(=O)CCCc1c[nH]c2ccccc12
  H5N1 CPE: 0.9
CCC(CC)c1nnc(NC(=O)COc2ccc3c(C)cc(=O)oc3c2)s1
  H5N1 CPE: i
CCCn1c2ccccc2c2nnc(SCC(=O)OCC)nc21
  H5N1 CPE: 0.6

Quoted from the results shown for reference:
SMILES	H5N1 CPE
O=C(COc1cccc2ccccc12)NNC(=O)C1CCCO1 (configuration not stated)	0.7
CCC(CC)c1nnc(NC(=O)COc2ccc3c(C)cc(=O)oc3c2)s1	i
C=COCCNC(=O)C1CC(=O)N(c2ccc(C)cc2)C1 (configuration not stated)	1.6
C=CCN1C(=O)C2(NNc3ccccc3O2)c2ccccc21 (configuration not stated)	i
COc1ccc(C(=O)n2nc(-c3ccc(C)cc3)nc2N)cc1OC	1.1
O=C(CN1CCOCC1)Nc1ncc(Br)cc1Br	0.5
O=C(c1ccccc1F)c1cn(CC(=O)N2CCCC2)c2ccccc12	0.1

Continuation:
SMILES	H5N1 CPE
CCCCOCCCNC1=NCCCCC1	1.0
CC1=CC(C)(C)N(C(=O)CSc2nnc(C)s2)c2ccc(C)cc21	1.2
COc1ccc(N=c2oc3cc(O)ccc3cc2C(=O)NCC2CCCO2)cc1 (configuration not stated)	0.0
OC(CN1CCN(c2ccccn2)CC1)Cn1c2ccc(Cl)cc2c2cc(Cl)ccc21 (configuration not stated)	i
O=C(CSc1nc2ccccc2c2nc3ccccc3n12)NCc1ccco1	0.1
c1ccc(Cn2ccnc2SCc2nnc(-c3ccccc3)o2)cc1	2.5
O=C(CSc1nnnn1Cc1ccccc1)NCC(=O)c1ccccc1	0.9
NC(=O)CS(=O)(=O)c1nc2ccccc2n1CC(=O)N1CCCCC1	0.1
O=c1cc2c(nn1Cc1c(Cl)cccc1Cl)-c1ccccc1CC2	2.0
O=C(Oc1ccc(-n2cnnn2)cc1)c1ccco1	i
O=C(NCCC(=O)N1CCN(c2ncccn2)CC1)c1ccccc1Cl	0.7
OCCN1CCN(Cc2cc(Cl)c3cccnc3c2O)CC1	i
COC(=O)c1ccccc1NC(=O)C1CCCN(S(C)(=O)=O)C1 (configuration not stated)	0.9
Cc1cc(-n2nc(C)cc2C)nc(NS(=O)(=O)c2ccccc2)n1	i
COC(=O)c1ccc2c(=O)n(CCO)c(=S)[nH]c2c1	0.7
Cc1cc(C(F)(F)F)nn1CC(=O)NNC(=S)NCC(C)C	i
CCCCNS(=O)(=O)c1ccc2c(c1)oc(=O)n2CC(=O)OCC	1.5
COc1ccc(S(=O)(=O)NCCCCCC(=O)NCCCN2CCOCC2)cc1	0.3
CS(=O)(=O)N(Cc1ccccc1)c1ccc(C(=O)NCc2cccnc2)cc1	2.0
O=C1CC(C(=O)Nc2ccccc2)C2(CCCCC2)O1 (configuration not stated)	1.6
COC(=O)C(CC(=O)c1ccc(Cl)cc1)c1ccc(C)cc1 (configuration not stated)	0.5
CCC(=O)Nc1nnc(CSCc2ccccc2)s1	0.1
CCN(c1cccc(C(F)(F)F)c1)S(=O)(=O)c1ccc2c(c1)CCN2C(=O)C1CC1	1.4
CC(C)(C)c1nnc(NC(=O)CN2C(=O)C3C4C=CC(C4)C3C2=O)s1 (configuration not stated)	1.8
CN(C)CCN1C(=O)c2oc3ccc(F)cc3c(=O)c2C1c1ccncc1 (configuration not stated)	i
SMILES	H5N1 CPE
CC1C(=NO)C(C)C(c2ccccc2)NC1c1ccccc1 (configuration not stated)	0.2
COc1ccc(-c2nc(CS(=O)CC(=O)N3CCC4(CC3)OCCO4)c(C)o2)cc1 (configuration not stated)	1.5
COc1cccc(N(CC(=O)NCc2cccnc2)S(C)(=O)=O)c1	0.6
COc1ccc(C(C#N)C2(C)OCCO2)cc1OC (configuration not stated)	0.4
Cn1c(OCc2ccco2)nc2c1c(=O)n(Cc1ccc(Cl)c(Cl)c1)c(=O)n2C	i
CCn1c2ccccc2c2nc3cc(OC)c(OC)cc3nc21	i
COc1ccccc1-c1cc(C(=O)Nc2cc(C)on2)no1	i
Cc1nc2cc(-n3ccc(=O)cc3)ccc2n1-c1ccccc1	i
COC(=O)C1=C(C)NC(C)=C(C(=O)OC)C1c1cc2cc(C)ccc2[nH]c1=O	0.6
O=c1c(Cl)c(N2CCCCC2)cnn1-c1nc2ccccc2[nH]1	0.2
CCCCn1c(=O)c(C(=O)Nc2ccccc2S(N)(=O)=O)c(O)c2ccccc21	i
Cc1ccc(-c2nnc(Nc3ccccc3)c3ccccc23)cc1S(=O)(=O)NCC1CCCO1 (configuration not stated)	i
CCCOC(=O)C1=C(C)NC2=C(C(=O)CCC2)C1c1cccc(OC)c1OC (configuration not stated)	i
Cc1ccc(NC(=O)Cc2nn(C)c(=O)c3ccccc23)cc1F	0.9
COc1ccccc1Nc1nc(N)nc(-c2cc3ccccc3o2)n1	0.6
COc1ccc(C(=O)c2cn[nH]c2-c2cc(Cl)ccc2O)cc1	0.1
CCc1ccc(NC2=CC(=O)CC(c3ccco3)C2)cc1 (configuration not stated)	i
Cc1ccnc(NS(=O)(=O)c2ccc(NS(=O)(=O)Cc3ccccc3)cc2)n1	i
O=C(Nc1cccc(Cl)c1)Nc1ccccc1C(=O)NCc1ccco1	i
O=S(=O)(NCC1CC1)c1cccc(S(=O)(=O)N2CCCC2)c1	0.2
CC1CCN(Cc2nc(-c3ccccc3)no2)CC1	i
CCOC(=O)c1ccccc1NC(=O)Cn1cnc2c(cnn2C(C)(C)C)c1=O	i
CS(=O)(=O)c1ccc2nc(NC(=O)c3cc4ccccc4o3)sc2c1	i
Cc1cc(NC(=O)CSc2nc3c(c(=O)n(C)c(=O)n3C)n2C(C)C)no1	i
COc1ccc(NC(=O)CSc2nc(N)c(-c3ccccc3)c(=O)[nH]2)cc1	0.1
SMILES	H5N1 CPE
CC(N)C12CC3CC(C1)CC(C(C)N)(C3)C2 (configuration not stated)	i
CCOc1ccc2[nH]c(C)c(CN(C)C)c(=O)c2c1	i
Cc1ccc(N2C(=O)C3ON(c4ccccc4)C(c4ccncc4)C3C2=O)c(C)c1 (configuration not stated)	1.2
CN1C(=O)C2(c3ccccc31)C1CCCC=C1C(C#N)=C(N)C2(C#N)C#N (configuration not stated)	1.9
O=C(NCC1CCCO1)c1ccc(CS(=O)(=O)c2ccc(Br)cc2)o1 (configuration not stated)	0.2
CCC(=O)NC(=S)Nc1cccc(NC(=O)CC)c1	i
Cc1ccc(N(CN2C(=O)C3CC=CCC3C2=O)C(=O)c2ccco2)cc1Cl (configuration not stated)	0.6
CCn1c(SCCC(=O)Nc2ccccc2)nnc1-c1ccc(OC)cc1	i
CC(=O)N1CCc2cc(S(=O)(=O)NCCC(=O)Nc3cccc(C)c3C)ccc21	i
C=C1c2cc(OC)ccc2NC(=O)N1CC	0.0
Fc1ccc(OCCCCCN2CCCC2)cc1	0.2
Cn1ccnc1SCC(=O)Nc1ccc(Oc2ccccc2)cc1	i
CN(C)S(=O)(=O)N1CCN(S(=O)(=O)c2ccc3ccccc3c2)CC1	0.1
Cc1nc2scc(-c3ccccc3)c2c(=O)n1N	0.3
C=CCn1c(COc2ccccc2)nnc1SCc1ccc(C#N)cc1	0.6
Cc1ccc(C)c(CN2CCNC2=O)c1	i
CC(C)(C)NC(=O)C1CC(=O)OC1(C)C (configuration not stated)	0.2
Cc1ccc(S(=O)(=O)N(CC(O)CN2CCCCC2)c2ccccc2)cc1 (configuration not stated)	1.9
CCOC(=O)c1oc2ccccc2c1NC(=O)c1ccccc1OC	i
CCOc1ccc(NC(=O)Nc2ccc3c(c2)nnn3C)cc1	i
CCOCCSc1nnc2nc(C)cc(C)n12	i
Cc1cccc(NC(=O)CSc2nnc(C)n2Cc2ccccc2)c1	i
CCOC(=O)c1c(C)[nH]c(C(C)=O)c1C	0.2
COC(=O)c1ccc(Sc2ccc(F)cc2)c(N)c1	0.7
O=C(OCCCCN1C(=O)c2ccccc2C1=O)c1ccc(S(=O)(=O)N2CCCC2)cc1	i
SMILES	H5N1 CPE
Cc1cccc(N/C=C/C(=C(C#N)C#N)N(C)C)c1	0.2
CCOc1cc(S(=O)(=O)N(CC)CC)c(OCC)cc1-n1cnnn1	1.2
CC(=O)Nc1nonc1-c1nc2ccccc2n1Cc1ccccc1	0.4
COc1ccc(C)cc1-n1nnnc1SCC(=O)c1cc(C)n(Cc2ccco2)c1C	2.1
CC(C)(C)Nc1nc(N2CCCC2)nc(N2CCCC2)n1	8.0
COc1ccccc1NC(=O)CN1CCN(CC(=O)Nc2cc(NC(C)=O)ccc2OC)CC1	i
CCc1cccc(OCC(=O)Nc2ccc(S(=O)(=O)Nc3onc(C)c3C)cc2)c1	1.6
CCCNC(=O)C1CCN(S(=O)(=O)c2ccc(-c3nn[nH]n3)cc2)CC1	i
CCN(CC)C(=O)CSc1nnc(-c2ccco2)n1Cc1ccco1	i
CCOc1ccc(CNC(=O)C2CCN(S(=O)(=O)CC)CC2)cc1OC	0.5
CCCCCn1c(=O)c(C(=O)c2ccccc2)nc2ccccc21	i
Brc1ccc(-c2nnc3n2-c2ccccc2CC3)cc1	0.9
CCCN(CCC)CCNC(=O)C1CC(=O)N(c2ccc(OC)cc2)C1c1ccc(OC)cc1 (configuration not stated)	i

High-throughput results (PubChem)
